NPYLR7 agonist: agonists of mosquito NPYLR7 receptor, primary screen, cell-based, Aedes aegypti, calcium fluorescence, mosquito biting behavior | Aedes aegypti neuropeptide Y-like receptor 7 (NPYLR7) | HEK293T NPYLR7/Galpha15, GCaMP6s calcium fluorescence | activation, % at 10 µM | 270,000 compounds, 0.15% hits; in the data active = activation above about 40%;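 also: 0% = vehicle and 100% = reference agonist at the receptor; some compounds past the cut are filed as inactive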
NPYLR7 agonist max-min: second read-out of NPYLR7 agonist, no call of its own (marks repeat the call); activation, %; measured here: Max-Min RFU normalised activation; some inactives read as strong as hits;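 span of the calcium signal over five minutes; 0% = vehicle and 100% = native peptide agonist; compound fluorescence can raise it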
Active calls of the source: *; & = joins results of further samples.

canonical_smiles	NPYLR7 agonist max-min	NPYLR7 agonist
CCOc1ccc(-c2ccc(=O)n(Cc3cccnc3)n2)cc1	6	8
C[n+]1cccnc1N	6	8
CC(CC(=O)NCc1ccccc1C(F)(F)F)n1ccnc1 (centres undefined)	-3	4
CS(=O)(=O)N1CCCc2cc(C(=O)Nc3ccc(Oc4ccccc4)cc3)ccc21	7	1
Cc1ccc(Oc2nccn3c(=O)n(CC(=O)Nc4cccc(Cl)c4)nc23)cc1	-1	0
COc1ccc(C2C(C(=O)OC3CCCC3)=C(C)NC3=C2C(=O)CC(c2ccccc2)C3)cc1OC (centres undefined)	8	2
CCN(CC)C(=O)c1cc2ccc(C(C)(C)C)cc2[nH]1	10	10
Cc1cc(C)c(C)c(Oc2ncnc(N)c2[N+](=O)[O-])c1	11	11
COc1cccc(N=Nc2c(N)[nH]n(-c3ccccc3)c2=O)c1	16&-17	15&-15
CCCNC(=O)C1(C)CCN(Cc2cc(C(F)(F)F)ccc2Cl)C1 (centres undefined)	0	0
Cc1cccc2nc(-c3cccc([N+](=O)[O-])c3)c(NC3CCCCC3)n12	24	20
CCN(CC)CCN(C(=O)C1=COCCO1)c1nc2cc(C)cc(C)c2s1	-10	-6
CCCN(CC(=O)N(CCc1ccccc1)Cc1ccc(C)o1)C(C)C(=O)OCC (centres undefined)	1	-2
CCN1CCN(c2ccc(CNC(=O)CCN3CCSC3=O)cn2)CC1	1	3
CC(C)N(Cc1ccccc1Cl)C(=O)CCn1cccn1	4	2
COc1ccc(Nc2nc(-c3cccs3)nc3ccccc23)cc1	-4	-4
O=C(NCc1ccc(F)cc1)C(C1CCCC1)N1CCN(C(=O)c2ccc3c(c2)OCO3)CC1 (centres undefined)	10	-4
CCn1c(C)c(C(=O)CN(CC2CCCO2)S(=O)(=O)/C=C/c2ccccc2)c(C)c1C(=O)OC (centres undefined)	23	17
Cc1cc(C)cc(NCCC(=O)N=c2sccn2C)c1	6	9
Cc1nc(Cl)c2c3c(sc2n1)CCCC3	-8	-11
COCCCNC(=O)Nc1c[nH]c2ccccc12	-5	1
Cc1ccoc1C(=O)N1CCCn2nc(C(=O)N3CCOCC3)cc2C1	3	9
CC(C)OP(=O)(OC(C)C)C(OC(=O)NC(O)C(Cl)(Cl)Cl)c1ccccc1 (centres undefined)	18	19
Cc1ccc2cc(CN3CCCOCC3)c(=O)[nH]c2c1	0	0
Cc1onc(-c2c(F)cccc2Cl)c1C(=O)NCCN1CCCCCC1	-13	-8
CC(C)(C)C1CCC(NC(=O)c2cccnc2Oc2ccc(Cl)cc2)CC1 (centres undefined)	-17	-13
COc1cccc(-c2nc(OCc3ccc(F)cc3)nn2-c2cccc(NC(=O)c3ccc([N+](=O)[O-])cc3)c2)c1	10	7
CC[S+](CC)Cc1ccccc1	4	5
CC(NC(=O)c1cncn1-c1ccc(-c2cc(C(F)(F)F)cc(C(F)(F)F)c2)cc1)c1ccc(Br)cc1 (centres undefined)	11	10
Cc1ccc(CN2CC(C(=O)N(Cc3nccn3C)C3CC3)CC2=O)cc1 (centres undefined)	7	13
C=c1occc1=C1NN=C(SC(C)C(=O)Nc2ccc3c(c2)CCC3)O1 (centres undefined)	-9	-6
O=C(c1ccc(CNc2cccc3c2OCCO3)cc1)N1CCCC1	-8	-7
C/C(=N/N=C1\NC(=O)C(CC(=O)Nc2ccc(Cl)cc2Cl)S1)C(C)C (centres undefined)	7	9
O=C(Cc1ccccc1)N1CCn2c(nnc2C(=O)N2CCCCC2)C1	2	6
Cc1cc(CNc2cc(N)ncn2)c2[nH]c(-c3ccccc3)c(C)c2c1	-3	-1
COC(=O)c1ccc(C(=O)N2CCN(C(c3ccccc3)c3ccc(Br)cc3)CC2)cc1 (centres undefined)	0	-4
CC(=O)Nc1cccc(-c2cc(C3(CNCC(C)(C)C)CC3)ccn2)c1	30	11
CCC(C)Cn1c(-c2ccc(OC)cc2)csc1=Nc1ccccc1 (centres undefined)	-16	-9
COc1ccc(C2=NN(C(=O)CSc3nc(=O)n4ccccc4n3)C(c3ccc(C)cc3)C2)cc1 (centres undefined)	0	4
CCCc1ccccc1N1C(=O)CSC1c1cccc(NC(=O)c2ccc(Cl)cc2Cl)c1 (centres undefined)	2	0
Cc1cc(NC(=O)c2ccccc2F)n(-c2ncnc3c2cnn3-c2cccc(C)c2C)n1	3	5
Cc1cnc(CNC(=O)C2CC2c2ccc(F)c(F)c2)o1 (centres undefined)	-8&6	-9&7
O=C(Nc1cccc(F)c1)c1nn(-c2ccccc2)c(=O)n(Cc2cccc(C(F)(F)F)c2)c1=O	14	12
CC1CCC(C(C)C)C(OC(=O)C2CCN(S(=O)(=O)c3cccc4nsnc34)CC2)C1 (centres undefined)	-7	-3
COCCN1C(=O)CC(CC(=O)N(C)Cc2nc3cc(C)c(C)cc3[nH]2)(c2ccccc2F)C1=O (centres undefined)	-2	2
Cc1cc(C(=O)Nc2cc(-n3c(C)nc4ncccc4c3=O)ccc2F)ccc1[N+](=O)[O-]	2	9
Cc1nccc(C(=O)Nc2ccc3c(c2)CCC(=O)N3Cc2ccc(Cl)cc2)n1	3	5
O=[N+]([O-])c1ccc(C2c3cccn3CCCN2Cc2c(F)cccc2F)cc1 (centres undefined)	11	0

An excerpt from above in order of molecular weight, largest number first.
canonical_smiles	NPYLR7 agonist max-min	NPYLR7 agonist
CCCc1ccccc1N1C(=O)CSC1c1cccc(NC(=O)c2ccc(Cl)cc2Cl)c1 (centres undefined)	2	0
O=C(NCc1ccc(F)cc1)C(C1CCCC1)N1CCN(C(=O)c2ccc3c(c2)OCO3)CC1 (centres undefined)	10	-4
Cc1ccc(Oc2nccn3c(=O)n(CC(=O)Nc4cccc(Cl)c4)nc23)cc1	-1	0
CCN1CCN(c2ccc(CNC(=O)CCN3CCSC3=O)cn2)CC1	1	3
COc1ccc(Nc2nc(-c3cccs3)nc3ccccc23)cc1	-4	-4
COc1cccc(N=Nc2c(N)[nH]n(-c3ccccc3)c2=O)c1	16&-17	15&-15
CCN(CC)C(=O)c1cc2ccc(C(C)(C)C)cc2[nH]1	10	10

The listing continues:
canonical_smiles	NPYLR7 agonist max-min	NPYLR7 agonist
O=C1CN(Cc2ccc(Br)cc2)C(=O)N1c1ccc(F)cc1	3	6
CCN(CC)CCNC(=O)c1cc2c(=O)n3ccccc3nc2s1	0	6
Cc1c(C(=O)NCCCc2ccccc2)oc2c(F)cccc12	1	4
COc1ccc2nc(-c3ccc(NS(=O)(=O)c4cc(C)ccc4OC)cc3)cn2n1	-14	-8
COc1ccc(S(=O)(=O)Oc2ccc(CNCc3ccc(F)cc3)cc2)cc1	-17	-10
CCC(C)(CC(=O)O)CC(=O)Nc1cccc(O)c1 (centres undefined)	-3	-2
Cc1ccc(S(=O)(=O)N(C)c2cc(S(=O)(=O)NCCCC(=O)O)c(C)cc2C)cc1	4	6
O=S(=O)(Nc1cccc(Cl)c1N1CCOCC1)c1ccc(F)c(F)c1	9	5
CCOc1ccc(S(=O)(=O)N2CCCCC2)cc1NC(=O)CCl	-8	-4
O=C(/C=C/c1cnc[nH]1)NCCNc1cccc2ccccc12	5	-3
O=C(Nc1cccc([N+](=O)[O-])c1)c1c[nH]c(=O)n(-c2ccc(F)cc2)c1=O	-5	-3
O=C(NCCc1ccccn1)C(C1CCCC1)N1CCN(C(=O)c2ccc([N+](=O)[O-])cc2)CC1 (centres undefined)	2	-3
C#CCn1c(=NC(=O)c2cc(C)nn2CC)sc2c(OC)ccc(OC)c21	11	5
COc1ccc(S(=O)(=O)NCCc2sc3nc(-c4ccc(Cl)cc4)nn3c2C)cc1	-1	-1
S=c1[nH]c2cc(Br)cnc2[nH]1	1	5
CCOC(=O)C1(CC2CC2)CCN(C(=O)Cc2c(F)ccc(F)c2F)CC1	7&13	15&11

Compounds shown so far that contain a tert-butyl group (3):
canonical_smiles	NPYLR7 agonist max-min	NPYLR7 agonist
CCN(CC)C(=O)c1cc2ccc(C(C)(C)C)cc2[nH]1	10	10
CC(C)(C)C1CCC(NC(=O)c2cccnc2Oc2ccc(Cl)cc2)CC1 (centres undefined)	-17	-13
CC(=O)Nc1cccc(-c2cc(C3(CNCC(C)(C)C)CC3)ccn2)c1	30	11

The results go on:
canonical_smiles	NPYLR7 agonist max-min	NPYLR7 agonist
CN(Cc1cc(=O)n2c3c(sc2n1)CCCC3)Cc1nc2ccccc2c(=O)[nH]1	-5	-2
CCCNC(=O)c1cc(-c2csc(C)n2)cn1C	5	10
Cc1c2c(nn1Cc1ccccc1)NC(=O)CC2c1ccnc(C(C)C)n1 (centres undefined)	4	6
CC(C)(C)N1CC(COc2ccccc2)OC1=O (centres undefined)	-2	0
CCOC(=O)c1nn(-c2ccccc2)c(=O)cc1N1CCc2ccccc21	1	5
Cn1cnnc1Sc1nc2c(c(=O)[nH]c(=O)n2C)n1Cc1ccccc1	9	19
O=C(c1cccc(Br)c1)N1CCN(C(=O)c2cccc(Br)c2)CC1	6	0
COCCN(CC(=O)N(Cc1ccc(F)cc1)Cc1ccc(C)s1)C(=O)Nc1ccc(C)cc1	-2	-2
CN(Cc1ccccc1)Cc1ccccc1	-33	-19
O=c1oc2ccc(NS(=O)(=O)c3ccc(Cl)cc3)cc2s1	3	2
Oc1ccccc1C=Nc1ncn[nH]1	2	2
COc1cc(S(=O)(=O)NCc2ccco2)c(OC)cc1Br	0	5
CCc1ccc(S(=O)(=O)c2cn(C)c3ccccc3c2=O)cc1	-2	-2
Cc1ccc(Cl)cc1NC(=O)CN1CCc2ccccc2C1	3	3
CCNC(=O)Cn1nnc(Cc2ccc(Cl)c(Cl)c2)n1	1	-1
O=C(NC(=S)NN1CCOCC1)c1cc(Br)ccc1Cl	5	5
CCOCCn1c(=O)c2c(nc3n(-c4ccc(F)cc4)c(C)c(C)n23)n(C)c1=O	-3	-4
Cc1[nH]c2ccccc2c1C(Nc1ccccn1)c1cccc(Br)c1 (centres undefined)	-6	-4
CCOC(=O)c1nn(-c2ccccc2C)c(=O)cc1OS(=O)(=O)c1ccccc1C(F)(F)F	8	8
Cc1nc(C2CCN(C(=O)C3C4CC5CC(C4)CC3C5)CC2)no1 (centres undefined)	2	3
CC(C)N(CCc1ccccc1)C(=O)C1CC=CCC1 (centres undefined)	-4	-3
Cc1c(S(=O)(=O)NC(C)c2ccccc2)c(=O)n(C)c(=O)n1C (centres undefined)	0	0
Cc1ccc(F)cc1NC(=O)C1Oc2ccccc2OC1C (centres undefined)	4	15
COc1ccc(-c2csc(NCc3ccco3)n2)cc1	9	13
O=C(COC(=O)c1cc(=O)[nH]c2ccccc12)c1ccc2ccccc2c1	16	21
CCN1C(=O)NC(c2ccc(OC(F)F)cc2)C(C(=O)OC)=C1C (centres undefined)	2	11
COc1ccc(CNC(=O)CCC2CCCN(C(=O)c3c[nH]c4ccccc34)C2)c(OC)c1 (centres undefined)	-4	2
COc1ccccc1-c1c(C)nn2c(-n3ccnc3)cc(C)nc12	2	1
Cc1c(Cl)cccc1N=Cc1ccc(O)cc1O	7	10
COc1cc(OC)cc(C(=O)NCC(=O)N(C)Cc2nc3ccccc3c(=O)[nH]2)c1	3	3
COc1cccc(Cn2c(C(=O)N3CCN(C(=O)CCl)C(C)C3)cc3ccoc32)c1 (centres undefined)	18	8
CC1(C)CC(NC2CCN(c3cccc(NC(=O)c4cccc(C(F)(F)F)c4)c3)CC2)CCO1 (centres undefined)	-6	-3
CCCc1[nH]n(C)c(=O)c1C1=C(N(C)C2CCCCC2)C(=O)N(Cc2ccc(F)cc2)C1=O	-6	-6
CC(C)(Oc1ccc(CCNC(=O)c2ccc(Cl)cc2)cc1)C(=O)NC1CCOC1=O (centres undefined)	-23	-17
Cc1cc2cc(CCNC(=O)c3cccc4ccccc34)c(=O)[nH]c2cc1C	17	0
Cc1ccc(Nc2nc(N3CCOCC3)nc3nccnc23)cc1C	6	4
O=C(C1CC1(Cl)Cl)N1CCN(Cc2ccc(-c3cccc(F)c3)s2)CC1 (centres undefined)	0	0
S=c1[nH]nc(SCc2c(Cl)cccc2Cl)s1	1	3
O=C1N2CN(C3CCCCC3)CN3C(=O)N4CN(C5CCCCC5)CN1C4C23 (centres undefined)	1	3
O=C(CCNC1CCC2(CCNCC2)CC1)Nc1ccc(F)cc1	1	6
COc1cc(N(C(=O)CCl)C(=O)CCl)cc(OC)c1OC	9	9
O=C(c1ccc(Cl)c(Cl)c1)N(Cc1cccc(OS(=O)(=O)c2ccc(F)cc2)c1)Cc1ccco1	9	0
Cc1cccc(C2=NOCC(=O)N2C/C=C/c2ccccc2)c1	3	8
Cc1cc(N)[nH]c(=O)c1	-2	0
CSc1ccc(C(=O)CC(C)(C)C(=O)NCCOc2ccccc2)cc1	-17	-13
CN1C(=O)CC2(C1=O)C(=O)N(CCc1cccs1)c1ccc(Cl)cc12 (centres undefined)	0	7
COCc1cc(C(=O)Nc2n[nH]c(-c3ccc(Cl)cc3)n2)no1	4	5
Cc1nn(C)c(C)c1C1CCCN1Cc1cn(-c2ccccc2)nn1 (centres undefined)	7	7
C=CCOC(CN1CCN(C(=O)c2ccc(OC)c(F)c2)CC1)c1cccc(OC)c1 (centres undefined)	3	-4
O=S(=O)(NC1CCN(S(=O)(=O)c2cccc(F)c2)CC1)c1ccccc1	0	0
Cn1cc(NC(=O)NCc2ccc(F)cc2)c2ccccc21	-5	1

A portion of the library (hit frequency here may not be typical).
